T cruzi inh = T. cruzi replication inhibition. actives 1.4% (n = 300,000). AID 1885. inhibition, % (concentration not given with the values). T. cruzi beta-gal in NIH3T3, luminescence, 90 h;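 active = mean inhibition across valid replicates above about 55%, limit read from the data; inconclusive = mean below that limit but half or more replicates reach it; inactive = mean below it, under half of replicates reach it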;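 note: signal also drops with host cell toxicity which is not excluded here; 0% = plate median of DMSO wells and 100% = zero luminescence signal; higher percent means less beta-gal luminescence so fewer parasites; stock transfer was 50 nL into about 50 µL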
Calb FLC = C. albicans growth modulation with fluconazole; C. albicans CaCi-2 (fluconazole-resistant clinical isolate) + fluconazole, Alamar Blue growth, 48 h; growth inhibition, % (concentration not given with the values); actives 0.57% (n = 300,000); AID 1979;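 active = most replicates above 75%; inconclusive = exactly half above 75%; inactive = most below 75%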;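 note: all wells also contain fluconazole at 8 µg/ml as a sub-toxic cotreatment; 0% = median of DMSO wells and 100% = median of geldanamycin control wells; wells of about 8 µL received 7.5 nL stock; the first replicate is given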
rRNA inh HTS = inhibits bacterial ribosomal RNA function over humanized ribosomes. E. coli WT GFP vs humanized-ribosome RFP mutants, fluorescence, 24 h; hits give low values; DMSO median 0, no signal -100. actives 1.6% (n = 350,000). GFP signal change (wild-type ribosome), % (test concentration not listed);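 active = significant combined selectivity score with lowered wild-type GFP, culture density cut under 30%, mutant RFP and density less affected; inactive = any of these conditions unmet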; note: one replicate is shown; some compounds called inactive have numbers as strong as hits
RanGTP-Imp inh = inhibitors of RanGTP-importin-beta interaction, primary screen, biochemical, FRET, CFP-Ran, YFP-importin-beta, homogeneous; actives 1.1% (n = 300,000); cell-free CFP-Ran/YFP-importin-beta FRET ratio; inhibition, % (no concentration beside the values); AID 2216;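 active = most replicates above 15%; inconclusive = exactly half above 15%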;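 note: 0% = DMSO wells and 100% = Ran loaded with GDP instead of GTP; wells of about 40 µL received 100 nL stock; the first replicate is given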
Beta cell apopt = beta cell apoptosis inhibition; INS-1E cytokine-induced death, ATP luminescence, 48 h; percent of positive-control rescue, neutral wells zero; protection from apoptosis, % (test concentration not listed); AID 435005; actives 0.8% (n = 300,000);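 active = all replicates at 75% or more, or half of them and the mean; inconclusive = half reach 75% but not the mean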;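 note: 0% = cytokine-treated negative control wells and 100% = positive control rescue; higher means more ATP so stronger rescue from cytokine killing; wells of about 40 µL received 100 nL stock; the first replicate is given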
ALR inh = human ALR oxidase inhibition via reduced H2O2; inhibition, % (no concentration beside the values); purified ALR, DTT oxidation, H2O2 HRP-luminol luminescence; AID 485317; actives 3.8% (n = 290,000); P55789;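 active = mean and each replicate at 75% or more; inconclusive = only one of the two met; inactive = neither met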;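 note: stock transfer was 7.5 nL into about 7.5 µL; 0% = neutral wells and 100% = wells with inactivated enzyme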
Target sequence (P55789 whole entry, looked up): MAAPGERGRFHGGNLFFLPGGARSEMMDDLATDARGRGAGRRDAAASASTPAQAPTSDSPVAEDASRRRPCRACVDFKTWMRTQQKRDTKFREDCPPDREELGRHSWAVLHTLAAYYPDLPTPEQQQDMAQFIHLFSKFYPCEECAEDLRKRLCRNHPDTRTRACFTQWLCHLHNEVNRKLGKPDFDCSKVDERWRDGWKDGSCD
FGF22 binding = binders of recombinant human FGF22 by thermal shift; SYPRO orange fluorescence; percent of sucrose octasulfate shift, DMSO zero; calls only at 9.99 µM; actives 1.5% (n = 340,000); AID 651658;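 active = melting point raised past a set limit in the mean and every replicate; inconclusive = no clear call; three in four hits are not shown here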
Target sequence (Q9HCT0 whole entry, looked up): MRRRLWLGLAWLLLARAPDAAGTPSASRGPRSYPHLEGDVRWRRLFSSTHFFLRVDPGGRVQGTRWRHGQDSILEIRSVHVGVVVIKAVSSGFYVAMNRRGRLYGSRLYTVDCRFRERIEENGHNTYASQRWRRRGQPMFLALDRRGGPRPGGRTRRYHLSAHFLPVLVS
AF4-AF9 inh = MLL-AF4/AF9 protein interaction inhibition. AID 651704. actives 0.47% (n = 350,000). P42568. AlphaScreen, biotin-AF4 peptide binding to FLAG-AF9. inhibition, % at 10 µM;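 active = every replicate reaching a set inhibition limit, whatever the replicate mean, cut at about 25% in these data; inconclusive = mean inhibition reaches that limit but some replicates miss it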;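 note: 0% = plate neutral control median and 100% = total signal loss; the record names both 10 and 1 µM as test concentration; the first replicate is given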
Target sequence (P42568 whole entry, looked up): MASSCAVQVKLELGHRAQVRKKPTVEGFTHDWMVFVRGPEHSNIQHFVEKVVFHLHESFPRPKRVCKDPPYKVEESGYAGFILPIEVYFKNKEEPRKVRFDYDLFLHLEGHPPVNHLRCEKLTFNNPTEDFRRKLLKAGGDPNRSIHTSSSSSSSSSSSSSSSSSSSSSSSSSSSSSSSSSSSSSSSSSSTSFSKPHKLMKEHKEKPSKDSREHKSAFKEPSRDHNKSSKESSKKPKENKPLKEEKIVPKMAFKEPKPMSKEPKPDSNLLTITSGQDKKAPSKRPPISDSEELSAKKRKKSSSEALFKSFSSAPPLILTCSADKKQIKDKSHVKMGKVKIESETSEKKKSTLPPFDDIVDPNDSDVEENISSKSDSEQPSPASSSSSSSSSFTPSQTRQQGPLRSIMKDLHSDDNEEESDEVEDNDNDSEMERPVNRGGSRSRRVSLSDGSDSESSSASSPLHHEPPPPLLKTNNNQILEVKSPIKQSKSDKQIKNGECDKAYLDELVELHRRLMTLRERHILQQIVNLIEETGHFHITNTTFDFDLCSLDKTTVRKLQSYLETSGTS
rRNA inh HTS OD600 = further read-out of rRNA inh HTS, marked with its call; OD600 change, %; measured here: OD600 growth;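 optical density of the mix in the first replicate; 0 = DMSO median and -100 = no signal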
rRNA inh HTS RFP = further read-out of rRNA inh HTS, marked with its call; RFP signal change, %; measured here: RFP humanized mutant strains;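 first replicate; 0 = DMSO median and -100 = no signal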
* hit, by the source's call; i = inactive; ? = inconclusive; · = no result given.

The line under a structure holds: T cruzi inh, Calb FLC, rRNA inh HTS, rRNA inh HTS OD600, rRNA inh HTS RFP, RanGTP-Imp inh, Beta cell apopt, ALR inh, FGF22 binding, AF4-AF9 inh
Cn1c(/N=C/c2cccs2)nc2ccccc21
    5, 3, 23, 15, 0.1, -1.2, -9, -13, i, -7.0
Cc1cc(/C=N/n2c(COc3ccccc3)nc3ccccc3c2=O)c(O)c([N+](=O)[O-])c1
    50, -13, ·, ·, ·, -8.0, 55, -4, ·, ·
O=C(Cn1c(CO)nc2ccccc21)NCc1ccc2c(c1)OCO2
    -25, -14, -12, -3, 1.6, 1.5, 0, 2, i, 6.0
COc1ccc(C2CC(c3ccccc3)Nc3nc(NC(=O)c4ccco4)nn32)cc1 (stereo not drawn)
    10, -6, ·, ·, ·, -3.5, 0, 1, ·, ·
COc1cccc2c1OC1(C)CC2N(C(=O)c2ccco2)C(=S)N1c1ccc(F)cc1 (stereo not drawn)
    4, 19, ·, ·, ·, -2.3, 4, -6, ·, ·
CC1CCCC(C)N1C(=O)CSc1nc2c(c(=O)n(C)c(=O)n2C)n1C (stereo not drawn)
    5, -7, -1, 8, -1.7, 1.4, 5, -3, i, 2.5
C/C(=N/Nc1nc(C)cc(-c2ccccc2)n1)c1ccco1
    -5, -1, ·, ·, ·, -1.9, 18, 1, ·, ·
O=C(c1cccnc1)N(Cc1ccccc1)c1ccccc1
    -6, -3, -6, -9, -4.3, -2.3, -1, -4, i, 4.8
CCCCC1CCC(C(=O)OCC(=O)N(CCOC)c2c(N)n(Cc3ccccc3)c(=O)[nH]c2=O)CC1 (stereo not drawn)
    9, 18, 7, 8, -1.8, ·, -6, -3, i, 0.2
Cc1cccc(/C=N/NC(=O)C2CCCNC2=O)c1 (stereo not drawn)
    -14, 3, ·, ·, ·, ?, -1, 55, ·, ·
O=C(NNC(=O)c1ccco1)c1ccccc1
    -17, -9, 8, 4, 0.3, 1.0, -3, -1, i, -0.5
CCOC(=O)c1nnsc1N
    -6, -12, 4, 13, -1.7, -2.1, -3, -4, i, 0.9
COC(=O)c1nc2n(n1)C(c1ccc(OC)c(OC)c1)C(C(=O)OC1CCCCC1)=C(C)N2 (stereo not drawn)
    1, 8, ·, ·, ·, -6.7, -3, ·, ·, ·
O=C(CCN1C(=O)c2ccccc2C1=O)NC(=S)Nc1cccc(Cl)c1
    -5, 2, ·, ·, ·, 3.0, -9, 2, ·, ·
CCCC1Cc2nc(Cl)c(C#N)cc2CO1 (stereo not drawn)
    1, 1, 7, -11, 2.3, -0.2, -2, -3, i, 1.2
O=c1cc(CSc2ccccc2)[nH]c(=S)[nH]1
    -12, 22, ·, ·, ·, 1.4, -11, ·, ·, ·
CN1CCN(C2=C(Cl)C(=O)N(CCc3ccccc3)C2=O)CC1
    14, -1, ·, ·, ·, -11, -7, 5, ·, ·
COc1ccc(-c2cc(=O)oc3cc(OC(C)C(=O)NCC4CCC(C(=O)O)CC4)ccc23)cc1 (stereo not drawn)
    4, -4, ·, ·, ·, 1.6, -7, ·, i, 1.2
CCCCNC(=S)NNC(=O)CCn1cc(C)cn1
    -7, -7, ·, ·, ·, 5.7, ·, 35, ·, ·
COc1ccc(-c2cn(Cc3ccc(C(N)=O)cc3)c(-c3ccncc3)n2)cc1
    ·, ·, -6, 11, 6.5, ·, 13, 98*, i, 2.6

The closing 2 entries of the part above open the next one.
The line under a structure holds: T cruzi inh, Calb FLC, rRNA inh HTS, rRNA inh HTS OD600, rRNA inh HTS RFP, RanGTP-Imp inh, Beta cell apopt, ALR inh, FGF22 binding, AF4-AF9 inh
CCCCNC(=S)NNC(=O)CCn1cc(C)cn1
    -7, -7, ·, ·, ·, 5.7, ·, 35, ·, ·
COc1ccc(-c2cn(Cc3ccc(C(N)=O)cc3)c(-c3ccncc3)n2)cc1
    ·, ·, -6, 11, 6.5, ·, 13, 98*, i, 2.6
COc1cccc(NC(=O)CN(c2cccc(F)c2)S(C)(=O)=O)c1
    -22, 9, -4, -6, 2.2, -4.9, -6, -11, i, 0.4
Cc1ccc([N+](=O)[O-])cc1NC(=O)Cc1ccc(F)cc1
    -9, 3, 32, 23, -1.2, ?, 2, 7, ·, -3.4
C/C(=N\NS(=O)(=O)c1ccc(C)cc1)c1ccc(C)o1
    -2, -14, 20, 20, -3.6, 1.5, ·, 62, i, -21
Cc1nn(Cc2c(F)c(F)c(F)c(F)c2F)c(C)c1NC(=O)c1ccc(COc2ccccc2Cl)o1
    40, 29, ·, ·, ·, -1.5, 34, -25, ·, ·
COC(=O)c1ccccc1NC(=O)CN1CCCCC1
    7, -28, 7, 9, 0.3, 8.1, -3, 1, i, -0.3
CCc1ccc(-c2cc(C)no2)cc1S(=O)(=O)N1CCN(c2cccc(C)c2C)CC1
    27, ?, 3, 15, 0.3, 0.0, 11, -2, i, 0.5
CC1(C)CC[C@]2(CO)CC[C@]3(C)C(=CCC4[C@@]5(C)CC[C@H](O)[C@@](C)(CO)C5CC[C@]43C)[C@@H]2C1 (stereo partly drawn)
    ·, ·, 8, 6, 3.9, ·, 5, -1, i, -15
COCCn1c(SCc2cnc(-c3ccccc3)s2)nnc1-c1ccncc1
    -2, -2, ·, ·, ·, 1.2, 2, 99*, ·, ·
NS(=O)(=O)c1ccc(CCNCC(=O)N2CCC(Cc3ccccc3)CC2)cc1
    1, -1, 6, 10, -5.2, -0.9, -3, -4, i, 9.4
CCn1nc(C)cc1C(=O)N1CCCC(C(=O)c2ccc(Oc3ccccc3)cc2)C1 (stereo not drawn)
    0, 1, -18, -40, -3.2, 0.7, -4, -2, i, -0.1
Cc1n[nH]c(C)c1S(=O)(=O)Nc1ccc2c(c1)OCCO2
    -15, -4, ·, ·, ·, -3.0, ·, -33, ·, ·
CCC(Oc1ccccc1)C(=O)Nc1ccccc1C(=O)N1CCOCC1 (stereo not drawn)
    -8, -12, 8, 7, 0.9, -4.9, 1, 1, i, -1.3
CCOCCCNC(=O)CC1Oc2ccc(C)cc2NC1=O (stereo not drawn)
    0, -2, 12, 15, -1.2, ?, -5, -4, i, 0.7
Cc1ccnc(NC(=O)CCCOc2cc(=O)n(C)c3ccccc23)c1
    -3, 0, -3, 1, -2.7, 1.0, 34, -5, i, -0.8
Cc1ccc(-n2nc(C)c3c(C)c(CCC(=O)NCCCOC(C)C)c(C)nc32)cc1
    18, 5, 6, 5, 1.0, 3.5, -1, -4, i, -2.7
Cc1cccc(OCC(=O)O/N=C(\N)c2ccc(Cl)cc2)c1
    -4, -5, ·, ·, ·, 2.6, ·, -1, ·, ·
CN1/C(=C\C(=O)COC(=O)c2ccc(O)c(O)c2)C(C)(C)c2ccccc21
    -3, -1, -56, -80, 18, ?, 95*, 99*, i, -2.2
COc1ccc(CC(=O)N(CCC2=CCCCC2)c2c(N)n(Cc3ccccc3)c(=O)[nH]c2=O)cc1OC
    -7, 0, 4, 5, -1.9, 1.0, 1, -4, ·, 0.5
S=C(Nc1cccc(Cl)c1)N1CCN(c2ccccn2)CC1
    -27, -32, 0, 3, -1.5, 2.6, ·, -6, i, 3.0
CC1CCN(S(=O)(=O)c2ccc(C(=O)Nc3ccccn3)cc2)CC1
    -3, -10, -1, 6, -1.8, 0.9, -4, ·, i, -28

The line under a structure holds: T cruzi inh, Calb FLC, rRNA inh HTS, rRNA inh HTS OD600, rRNA inh HTS RFP, RanGTP-Imp inh, Beta cell apopt, ALR inh, FGF22 binding, AF4-AF9 inh
C=CCN(C(=O)CNS(=O)(=O)c1ccccc1)C(C(=O)NCCOC)c1cccnc1 (stereo not drawn)
    -19, -7, 6, 3, 2.0, -0.9, -16, ·, i, -1.0
CSc1nnc(C)c(=O)[nH]1
    -7, -2, ·, ·, ·, ?, -3, -2, ·, ·
CN(CCCC1CCCC1)C(=O)CCc1nnc(-c2ccccc2)o1
    8, -8, -48, -67, -7.3, 8.0, 1, 5, i, 48*
COc1ccc(OCC(=O)NC(=S)NNC(=O)COc2ccc(Br)cc2Cl)cc1
    -7, -87, -53, -78, -18, 0.9, -7, 61, ·, -5.0
Cc1ccc(NC(=O)COC(=O)CC2SC(N3CCCC3)=NC2=O)cc1 (stereo not drawn)
    ·, ·, 6, 6, -1.0, ·, -4, 2, i, -5.3
COCCSc1ccccc1C(=O)Nc1ccc(Br)cc1
    13, ?, -17, -24, -9.9, 2.1, 5, 2, i, -3.3
COc1ccc(S(=O)(=O)NC2CCSc3ccccc32)cc1NC(C)=O (stereo not drawn)
    3, 1, 0, -4, -2.6, 2.6, 0, ·, i, 1.0
COc1ccc(CC(=O)NCc2n[nH]c(=S)n2-c2cccc(C)c2)cc1
    11, -4, 8, 8, 1.2, -2.6, -8, 34, i, 0.6
Cc1ccc(SCC(=O)NCc2cccnc2)cc1
    -25, -7, ·, ·, ·, 3.2, -1, -2, ·, ·
CC(=O)Nc1cccc(-c2csc(Nc3cc(C)ccn3)n2)c1
    0, 32, ·, ·, ·, -5.5, 1, 3, ·, ·
COc1ccc(/C=C2\SC(=Nc3ccccc3OC)NC2=O)cc1
    11, 50, -29, -41, 3.8, 3.8, 8, 8, i, 6.7
CCO[C@H]1OC(C(=O)N2CCCCCCC2)=C[C@@H](c2ccccc2)[C@@H]1CCCO
    9, -9, -1, 13, 3.5, -1.6, -7, -7, i, -5.5
Cc1ccc2[nH]c(C(=O)N3CCN(C=O)CC3)cc2c1
    -12, 11, 0, 10, -2.2, -2.0, -9, -24, i, -2.7
COc1ccc(NC(=O)C2CCN(c3ncnc4c3nc3n4CCCCC3)CC2)c(OC)c1
    2, -10, 13, 9, -1.9, -5.5, 1, -1, i, -1.8
O=C(c1ccc2c(c1)OCO2)C1CCCN(C(=O)NCc2ccccc2)C1 (stereo not drawn)
    -14, ?, -6, 0, 1.1, -6.1, -6, -7, i, -0.8
CCCSc1nnc(NC(=O)c2nc(SC)ncc2Cl)s1
    -8, 10, ·, ·, ·, ?, -3, -8, ·, ·
Cc1ccc(NC2CCCN(C(=O)c3cn4cccc(C)c4n3)C2)cc1C (stereo not drawn)
    -5, -6, 1, 5, -0.2, 1.0, -3, 99*, i, 1.1
COc1cccc(-n2nnc3c(=O)n(Cc4ccc(Br)cc4)cnc32)c1
    22, -3, ·, ·, ·, 0.8, -2, -2, ·, ·
C[N+]1(CCCOC(=O)C2(c3ccccc3)CCCC2)CCOCC1
    -5, -5, ·, ·, ·, -2.9, -8, 0, ·, ·
Cc1ccc(NC(=O)C(C)Sc2nnc(C)n2CC2CCCO2)cc1 (stereo not drawn)
    -17, -4, 6, 15, -3.0, -5.2, ·, ·, i, -0.6

Results in Beta cell apopt, rRNA inh HTS OD600 and T cruzi inh, for two of the compounds above:
Structure	Beta cell apopt	rRNA inh HTS OD600	T cruzi inh
COc1ccc(/C=C2\SC(=Nc3ccccc3OC)NC2=O)cc1	8	-41	11
CCO[C@H]1OC(C(=O)N2CCCCCCC2)=C[C@@H](c2ccccc2)[C@@H]1CCCO	-7	13	9

Screening data (PubChem BioAssay)

An excerpt. The share of hits here may be higher or lower than overall.
